Compound activity as filed in PubChem.
Menin MLL FP FL: qHTS Assay for Inhibitors Targeting the Menin-MLL Interaction in MLL Related Leukemias: Competition With Fluorescein Labeled MLL-derived Peptide; Fluorescence polarization, fluorescein-MLL peptide displacement from menin; FP activity change, % at 61.4 µM; 290,000 tested, under 10 active; AID 1766, 2009; inconclusive = falling polarisation curve, or a change in total fluorescence; inactive = total fluorescence flat and polarisation flat or rising; no compound was filed as active; the % refers to the polarisation; negative = inhibition;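 further: % of control where 0% means no effect; inhibitors lower the polarisation; unlabelled MLL peptide was the positive control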
gsp agonist: qHTS for Agonist of gsp, the Etiologic Mutation Responsible for Fibrous Dysplasia/McCune-Albright Syndrome: qHTS; AID 624287, 2012; gsp mutant cells, cAMP HTRF, 30 min; control for the full effect not named in the record; Potency, µM (series often up to 76.9 µM), for inactives: at the top dose activation (cAMP increase), actives largely listed as activators; 0.13% of 340,000 active; active = well fitted activation curve with a large enough effect; inconclusive = small, poorly fitted or top-dose-only effect, or another doubt; inactive = no such curve, though single readings can be large or run the other way; cell line not stated here;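 further: phosphodiesterase inhibitor Ro 20-1724 added with compounds to block cAMP breakdown; potency means the concentration at half of the fitted maximal effect; nearly all actives have a fitted effect of over 60% in size; about a fifth of the inactives were tested at one dose only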
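Cells stably selected in G418 were plated at 2000/well, grown 16-24 hr, then given compounds in DMSO with the PDE inhibitor […] (300 uM solution added) for 30 min at 37C; cAMP was read by HTRF.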
D2 agonist: Beta-Arrestin HTS for Positive Allosteric Modulators of the Human D2 Dopamine Receptor: Agonists. D(2) dopamine receptor (Homo sapiens), P14416. DiscoveRx PathHunter D2 beta-arrestin, luminescence, 90 min; 100% = 57 uM dopamine signal. activation, % (test concentration not listed). 0.084% of 360,000 active; in the data active = activation above about 40%; inconclusive = about 15% to 40%; inactive = below about 15%; further: compound concentration not given in the record; the text of the record calls up to 30% inactive
Target sequence (P14416 whole entry, looked up): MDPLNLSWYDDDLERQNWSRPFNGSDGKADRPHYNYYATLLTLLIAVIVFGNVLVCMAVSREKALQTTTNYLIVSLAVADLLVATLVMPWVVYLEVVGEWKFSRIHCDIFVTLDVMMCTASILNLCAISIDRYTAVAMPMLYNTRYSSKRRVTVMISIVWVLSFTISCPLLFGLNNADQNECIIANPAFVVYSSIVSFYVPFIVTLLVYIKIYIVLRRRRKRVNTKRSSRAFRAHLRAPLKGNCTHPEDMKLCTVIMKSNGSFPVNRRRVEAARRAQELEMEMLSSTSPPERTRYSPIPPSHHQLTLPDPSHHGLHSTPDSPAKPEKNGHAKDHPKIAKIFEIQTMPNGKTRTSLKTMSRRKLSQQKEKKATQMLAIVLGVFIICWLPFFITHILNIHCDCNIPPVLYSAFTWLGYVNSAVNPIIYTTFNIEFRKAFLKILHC
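Agonist mode: compounds alone added to overnight-plated D2 PathHunter cells for 90 min at 37 C, with 57 uM final dopamine (EC100) defining full response. Beta-arrestin recruitment detected by chemiluminescent reagent, read after 1 h at ambient temperature.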
PINK1 modulator: A Quantitative High throughput Screen to Identify Chemical Modulators of PINK1 Expression. 0.2% of 410,000 active. PINK1 immunofluorescence, high-content cytometry, 24 h. Potency, µM (highest dose often 76.6 µM), for inactives: at the highest dose activation (PINK1 increase), hits mostly activators; active = well fitted activation curve with a large enough effect; inconclusive = small, poorly fitted or top-dose-only effect; inactive = flat fitted curve, though single readings scatter; cell line not stated here;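 further: potency means the concentration at half of the fitted maximal effect; % of control where 0% means no effect; nearly all actives have a fitted effect of over 65% in size; a mitochondrial uncoupler was the plate control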
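Fluorescence from anti-PINK1 antibody, together with nuclear and cell stains, was scanned on a laser-scanning cytometer. Before staining, stable-line cells were incubated 24 hours with compounds at 5 concentrations; primary antibody 12 h at 10 degrees C.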
ClpP mod: qHTS Assay for Activators of ClpP; 1.9% of 340,000 active; AID 651965, 2013; ATP-dependent Clp protease proteolytic subunit (Bacillus subtilis (strain 168)), P80244; Potency, µM (doses to about 57.5 µM), for inactives: at the highest dose activity change, negative = active; purified B. subtilis ClpP, FRET peptide cleavage, 20 min; active = well fitted falling curve with a large enough effect; inconclusive = small, poorly fitted or top-dose-only effect; inactive = no such curve, though single readings can be large or run the other way; further: potency means the concentration at half of the fitted maximal effect; the source files actives as falling curves though it sought activators and does not explain the sign; nearly all actives have a fitted effect of over 65% in size; many hits overshoot -100%
Target sequence (P80244 whole entry, looked up): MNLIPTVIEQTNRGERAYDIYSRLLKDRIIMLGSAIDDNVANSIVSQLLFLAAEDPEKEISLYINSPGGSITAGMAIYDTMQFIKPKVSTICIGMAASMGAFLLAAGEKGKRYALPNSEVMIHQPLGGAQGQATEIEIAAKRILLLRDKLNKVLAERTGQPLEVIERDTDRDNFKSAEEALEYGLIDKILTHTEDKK
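FRET quenching reversal measured ClpP activation: 10 microg/mL B. subtilis ClpP at pH 8 with the FRET-FV decapeptide, read at 430 nm after 320 nm excitation. The 20-min minus 0-min signal was scaled between DMSO/no-enzyme wells and ADEP (5.8 microM final).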
gsp antagonist: qHTS for Antagonists of gsp, the Etiologic Mutation Responsible for Fibrous Dysplasia/McCune-Albright Syndrome: qHTS; gsp-mutant cells, cAMP HTRF, 30 min; control for the full effect not named in the record; 0.4% of 340,000 active; Potency, µM (series often up to 76.9 µM), without a hit: at the highest dose activity change, negative = inhibition, hits mostly inhibitors; active = falling curve of any shape with a large fitted effect; inconclusive = falling curve, mostly with a smaller effect; inactive = flat or rising curve; cell line not stated here;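 further: intracellular cAMP measured with PDE inhibitor Ro 20-1724 present during compound exposure; potency means the concentration at half of the fitted maximal effect; on the % scale 0 is the no-effect control and ±100 the full control effect; nearly all actives have a fitted effect of over 65% in size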
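HTRF cAMP measurement after 30 min RT detection following 30 min, 37C compound treatment alongside […] (added as 300 uM solution) in G418-selected cells seeded at 2000/well and grown 16–24 h.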
Sfp inh: qHTS Assay for Inhibitors of Bacillus subtilis Sfp phosphopantetheinyl transferase (PPTase) | 3.5% of 310,000 active | Potency, µM, without a hit: max response, negative = inhibition, hits mostly inhibitors | Biochemical Sfp PPTase activity, qHTS; active means well fitted inhibition curve with a large enough effect; inconclusive means small, poorly fitted or top-dose-only effect, or another doubt; inactive means no such curve, though single readings can be large or run the other way;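 further: the enzyme is Sfp with the accession as filed and its product quenches rhodamine fluorescence; potency means the concentration at half of the fitted maximal effect; 0% = enzyme reaction without inhibitor and -100% = no enzyme wells; top concentration of the series not given in the record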
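With Hepes-Na pH 7.6 buffer containing 10 mM MgCl2, Sfp (15 nM) modified BHQ-2-YbbR (12.5 uM) using rhodamine-CoA (5 uM). Two reads 30 minutes apart at 525/598 nm yielded each well's rate.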
An asterisk follows results filed as active; [ ] = dose if it differs, or a comment.

`CCC1(C)Nc2ccccc2C(=O)N1O` (configuration not stated) gave Menin MLL FP FL -1.5, gsp agonist -15%, D2 agonist -5.1, PINK1 modulator -0.8%, ClpP mod -10%, gsp antagonist 15% and Sfp inh -8%.
`CC(=O)c1ccc(N(C(=O)CNC(=O)c2ccco2)C(C(=O)NC2CCCC2)c2ccc(C)o2)cc1` (configuration not stated) gave gsp agonist 13%[15.4 µM], D2 agonist -1.5, PINK1 modulator 2.9%, ClpP mod -1.1%, gsp antagonist -12% and Sfp inh 7%.
CN(Cc1ccccc1)C(=O)c1cccc(NC(=O)Cc2ccc(NC(=O)C3CCN(C(=O)C4CC4)CC3)cc2)c1 was read as D2 agonist 3.0, PINK1 modulator -1.2%, ClpP mod 1.4% and gsp antagonist 10%.
Cc1cccc(NC(=O)c2ccc(C(=O)c3ccccc3)o2)c1 was read as Menin MLL FP FL 0.4, gsp agonist -8%[15.4 µM], D2 agonist -0.6, PINK1 modulator 1.6%, ClpP mod 22µM*, gsp antagonist 1% and Sfp inh -5%.
CCC[C@@H](CN[C@@H](CNC)C(C)C)NCCCCc1ccccc1 was read as Menin MLL FP FL -8.4, gsp agonist 11%, D2 agonist -2.5, PINK1 modulator 0.4%, ClpP mod 1.8%, gsp antagonist 13% and Sfp inh 20%.
`O=C(NCc1cccnc1)c1cc(C2CCCCN2C(=O)c2ccc3c(c2)CCO3)on1` (configuration not stated) gave D2 agonist 0.1, PINK1 modulator 2.6% and ClpP mod -2.2%.
COc1cccc(OCCN2CCN(c3ncnc4c3cnn4-c3ccccc3)CC2)c1 was read as Menin MLL FP FL 6.0, gsp agonist 20%, D2 agonist 6.8, PINK1 modulator inconclusive, ClpP mod inconclusive, gsp antagonist inconclusive and Sfp inh 16%.
For Cc1noc(C)c1COc1ccc(C(=O)OCC(=O)Nc2ccc3c(c2)OCO3)cc1 the results were Menin MLL FP FL -0.7, gsp agonist -2%, D2 agonist 2.2, PINK1 modulator 0.1%, ClpP mod -3.9%, gsp antagonist -14% and Sfp inh -12%.
Screening CCN(CC)S(=O)(=O)c1ccc(Cl)c(C(=O)Nc2cc(C)nn2-c2ccccc2)c1 returned Menin MLL FP FL 0.9, gsp agonist 6%, D2 agonist 2.4, PINK1 modulator -0.9%, ClpP mod -2.3%, gsp antagonist -3% and Sfp inh 5%.
For COc1ccc(OC)c(C2=Nn3c(nnc3-c3cc(OC)c(OC)c(OC)c3)SC2)c1 the results were Menin MLL FP FL 12, gsp agonist 22%, D2 agonist -2.0, PINK1 modulator 0.0%[38.3 µM], ClpP mod -2.3%, gsp antagonist 30%[activator] and Sfp inh -3%.
Screening Cc1cccc([C@@H]2[C@@H]3C(=O)N(Cc4ccccc4)C(=O)[C@@H]3[C@]3(Cc4ccc(Cl)cc4)C(=O)N(c4cccc(Br)c4)C(=O)N23)c1 returned Menin MLL FP FL -8.5, gsp agonist -31%[inhibitor], D2 agonist -2.4, PINK1 modulator 2.7%, ClpP mod 2.4%, gsp antagonist 4% and Sfp inh 18%.
`CCN=C1SC(C(N)=O)CC(=O)N1CC` (configuration not stated) gave Menin MLL FP FL -0.2, gsp agonist -48%[inhibitor], D2 agonist -1.0, PINK1 modulator -0.2%, ClpP mod -2.7%, gsp antagonist 14% and Sfp inh 9%.
For COc1ccc(CCN(C)C2CCCN(S(=O)(=O)c3ccccc3F)C2)cc1OC (configuration not stated) the results were Menin MLL FP FL 2.7, gsp agonist -19%, D2 agonist -3.8, PINK1 modulator -1.2%, ClpP mod 0.6%, gsp antagonist 6% and Sfp inh 8%.
Screening Cc1cc(C)cc(-n2nnnc2SCC(=O)Nc2nc(-c3ccc(F)cc3)cs2)c1 returned Menin MLL FP FL -0.6, gsp agonist -2%, D2 agonist 0.2, PINK1 modulator 5.8%[38.3 µM], ClpP mod 1.6%, gsp antagonist -4% and Sfp inh inconclusive.
`NCC(c1ccc(Cl)cc1Cl)c1c[nH]c2ccccc12` (configuration not stated) gave Menin MLL FP FL -2.4, gsp agonist -34%[inhibitor], D2 agonist -5.5, PINK1 modulator -3.0%, gsp antagonist 6% and Sfp inh inconclusive.
`COC(=O)CNc1cccc(C(F)(F)F)c1` gave Menin MLL FP FL 1.0, gsp agonist -1%[15.4 µM], D2 agonist -3.7, PINK1 modulator 0.7%, ClpP mod -2.8%, gsp antagonist 7% and Sfp inh 10%.
For Cc1nnc(SCC(=O)Nc2nccs2)s1 the results were Menin MLL FP FL -0.4, gsp agonist -16%, D2 agonist -0.1, PINK1 modulator -1.0%, ClpP mod -0.7%, gsp antagonist 10% and Sfp inh 0%.
Screening NC1=NC(=O)C2(COC(c3ccncc3)OC2)S1 (configuration not stated) returned Menin MLL FP FL 2.3, gsp agonist -1%[15.4 µM], D2 agonist 3.1, PINK1 modulator 1.5%, gsp antagonist 4% and Sfp inh 3%.
Screening OC1(c2ccccc2F)CCN(Cc2nnc(-c3ccccc3)o2)CC1 returned Menin MLL FP FL 17, gsp agonist 0%, D2 agonist 0.0, PINK1 modulator -0.8%, ClpP mod -6.1%, gsp antagonist -8% and Sfp inh 6%.
`CCOc1cc(/C=C2/C(=N)N3C(=NC2=O)SN=C3S(=O)(=O)CC)ccc1OC(=O)c1ccco1` gave gsp agonist -103%[inhibitor], D2 agonist 1.3, PINK1 modulator 1.1%, ClpP mod 1.2%, gsp antagonist -5% and Sfp inh 11%.
`N#CCC(=O)Nn1c(=S)[nH]c2ccccc2c1=O` gave Menin MLL FP FL 4.1, gsp agonist 1%[15.4 µM], D2 agonist -1.7, PINK1 modulator -1.4%, gsp antagonist 1% and Sfp inh -16%.
For CCCn1nc(C(=O)OCC(=O)c2ccc3c(c2)NC(=O)CO3)c2ccccc2c1=O the results were Menin MLL FP FL 6.5, gsp agonist -2%, D2 agonist -1.5, PINK1 modulator 3.1%, ClpP mod -1.4%, gsp antagonist 6.3µM* and Sfp inh -25%.
Screening Cc1ccc2c(Cl)c(C)c(N3CCCC3)nc2n1 returned Menin MLL FP FL 9.2, gsp agonist -3%, D2 agonist -4.6, PINK1 modulator 0.1%, ClpP mod 0.9%, gsp antagonist 13% and Sfp inh -3%.
For Cc1cccc(C(=O)Nc2nccs2)c1[N+](=O)[O-] the results were Menin MLL FP FL 5.4, gsp agonist -22%, D2 agonist -2.3, PINK1 modulator 5.8%, ClpP mod -2.0%, gsp antagonist 9% and Sfp inh 0%.
Cc1cccc(Cn2c(-c3ccc[nH]c3=O)nc3ccccc32)c1 was read as Menin MLL FP FL 0.9, gsp agonist -3%, D2 agonist 1.8, PINK1 modulator 1.1%, ClpP mod 4.6%, gsp antagonist 9% and Sfp inh -3%.
Screening CC(NC(=O)C1CC1)c1ccc(-c2ccccc2)cc1 (configuration not stated) returned Menin MLL FP FL 3.2, gsp agonist -27%, D2 agonist -3.7, PINK1 modulator 6.3%, ClpP mod 2.0%, gsp antagonist 2% and Sfp inh 6%.
For CN(CCc1cnn(C)c1)C(=O)C1CCC(=O)N(CC2CCCCC2)C1 (configuration not stated) the results were Menin MLL FP FL -3.4, gsp agonist -5%, D2 agonist -1.9, PINK1 modulator -0.4%, ClpP mod -1.8%, gsp antagonist 6% and Sfp inh 1%.
For CN(c1ccccc1)S(=O)(=O)c1ccc(C(=O)OCC(=O)NCc2ccco2)cc1 the results were Menin MLL FP FL 8.4, gsp agonist -26%, D2 agonist -1.3, PINK1 modulator 3.3%, ClpP mod 0.4%, gsp antagonist 1% and Sfp inh -6%.
For Cc1ccc2nc(C3CCN(CC(=O)N4CCCCCC4)CC3)[nH]c2c1 the results were Menin MLL FP FL 6.7, gsp agonist -31%[inhibitor], D2 agonist -2.2, PINK1 modulator 3.5%[38.3 µM], ClpP mod -1.2%, gsp antagonist 4% and Sfp inh 2%.
Cc1ccccc1-n1nc(C(=O)O)c(C)c(C#N)c1=O was read as Menin MLL FP FL 6.1, gsp agonist -14%, D2 agonist -0.7, PINK1 modulator 0.6%, ClpP mod -21%, gsp antagonist 4% and Sfp inh 16%.
Screening CCOc1ccc(C(C(=O)NCC2CCCO2)N(Cc2cccnc2)C(=O)c2snc(C(N)=O)c2N)cc1 (configuration not stated) returned Menin MLL FP FL -13, gsp agonist 28%[15.4 µM], D2 agonist -2.0, PINK1 modulator -1.0%, ClpP mod 0.0%, gsp antagonist -25% and Sfp inh 2%.
Screening CCOc1cc(N2CCOCC2)c(OCC)cc1NC(=O)C(NC(=O)c1ccco1)C(C)C (configuration not stated) returned Menin MLL FP FL -0.6, gsp agonist -1%, D2 agonist -1.0, PINK1 modulator 0.9%, ClpP mod -3.9%, gsp antagonist 1% and Sfp inh -12%.
For COc1ccc(C(=O)OCC(=O)Nc2cc(S(=O)(=O)N3CCOCC3)ccc2N2CCCC2)cc1 the results were Menin MLL FP FL 5.9, gsp agonist -1%[15.4 µM], D2 agonist -4.4, PINK1 modulator 0.9%, gsp antagonist -32% and Sfp inh 21%.

Structures listed so far that have a cyano group (two):
`N#CCC(=O)Nn1c(=S)[nH]c2ccccc2c1=O` gave Menin MLL FP FL 4.1, gsp agonist 1%[15.4 µM], D2 agonist -1.7, PINK1 modulator -1.4%, gsp antagonist 1% and Sfp inh -16%.
Cc1ccccc1-n1nc(C(=O)O)c(C)c(C#N)c1=O was read as Menin MLL FP FL 6.1, gsp agonist -14%, D2 agonist -0.7, PINK1 modulator 0.6%, ClpP mod -21%, gsp antagonist 4% and Sfp inh 16%.
